# UCH37 inh – inhibitors of human UCH37 deubiquitinase, primary screen, biochemical, Ub-AMC cleavage, fluorescence; Ubiquitin carboxyl-terminal hydrolase isozyme L5 (Homo sapiens), Q9Y5K5; purified proteasome/UCH37; inhibition, % (concentration not given with the values); hit rate 0.33% among 330,000; AID 588478, 2011;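 active = mean of two replicates above 20%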;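 also: 0% = compound-free wells with enzyme and 100% = wells lacking proteasome; stock transfer was 100 nL into about 20 µL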
# Target sequence (Q9Y5K5 whole entry, looked up): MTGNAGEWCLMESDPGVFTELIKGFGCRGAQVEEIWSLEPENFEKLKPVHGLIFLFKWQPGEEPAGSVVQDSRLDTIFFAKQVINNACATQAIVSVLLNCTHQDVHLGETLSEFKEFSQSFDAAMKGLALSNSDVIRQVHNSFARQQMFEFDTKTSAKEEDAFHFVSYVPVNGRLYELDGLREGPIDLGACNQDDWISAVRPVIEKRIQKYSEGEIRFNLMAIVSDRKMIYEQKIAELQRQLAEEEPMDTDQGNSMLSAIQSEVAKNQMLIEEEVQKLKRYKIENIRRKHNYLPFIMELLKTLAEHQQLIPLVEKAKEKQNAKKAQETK
#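 Assay system: Proteasome-bound UCH37. Buffer or medium: pH 7.4 Tris-HCl (50 mM) with ovalbumin, ATP-MgCl2, DTT. Incubation: 30 min preincubation with enzyme, 25 min cleavage at room temperature. Measured by: fluorescence, ex 355 nm, em 460 nm. Read-out basis: percent inhibition. Control set: wells without proteasome as full block, compound-free enzyme plus substrate as uninhibited.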
# T cruzi inh – inhibitors of intracellular T. cruzi growth, primary screen, luminescence, NIH3T3 host cells; T. cruzi beta-gal in NIH3T3, 90 h; AID 1885, 2009; inhibition, % (concentration not given with the values); hit rate 1.4% among 300,000;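 active = mean inhibition across valid replicates above about 55%, limit read from the data; inconclusive = mean below that limit but half or more replicates reach it; inactive = mean below it, under half of replicates reach it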;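 also: signal also drops with host cell toxicity which is not excluded here; 0% = plate median of DMSO wells and 100% = zero luminescence signal; higher percent means less beta-gal luminescence so fewer parasites; stock transfer was 50 nL into about 50 µL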
# Ecoli growth – E. coli growth inhibition, primary screen, OD600. Escherichia coli growth, 23 h; stronger effect = lower value. OD600 absorbance (concentration not given with the values). hit rate 0.21% among 330,000;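 active = OD600 absorbance below the run mean of sample wells minus 3.6 SD, in any replicate, cut at about 0.56 in these data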;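 also: stock transfer was 300 nL into about 60 µL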
# MLL AF4-AF9 inh – inhibitors of AF4 peptide binding to AF9, primary screen, biochemical, AlphaScreen, biotin-AF4 peptide, FLAG-AF9, single point. Protein AF-9 (Homo sapiens), P42568. inhibition, % at 10 µM. hit rate 0.47% among 350,000;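 active = every replicate reaching a set inhibition limit, whatever the replicate mean, cut at about 25% in these data; inconclusive = mean inhibition reaches that limit but some replicates miss it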;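 also: 0% = plate neutral control median and 100% = total signal loss; the record names both 10 and 1 µM as test concentration; the first replicate is given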
# Target sequence (P42568 whole entry, looked up): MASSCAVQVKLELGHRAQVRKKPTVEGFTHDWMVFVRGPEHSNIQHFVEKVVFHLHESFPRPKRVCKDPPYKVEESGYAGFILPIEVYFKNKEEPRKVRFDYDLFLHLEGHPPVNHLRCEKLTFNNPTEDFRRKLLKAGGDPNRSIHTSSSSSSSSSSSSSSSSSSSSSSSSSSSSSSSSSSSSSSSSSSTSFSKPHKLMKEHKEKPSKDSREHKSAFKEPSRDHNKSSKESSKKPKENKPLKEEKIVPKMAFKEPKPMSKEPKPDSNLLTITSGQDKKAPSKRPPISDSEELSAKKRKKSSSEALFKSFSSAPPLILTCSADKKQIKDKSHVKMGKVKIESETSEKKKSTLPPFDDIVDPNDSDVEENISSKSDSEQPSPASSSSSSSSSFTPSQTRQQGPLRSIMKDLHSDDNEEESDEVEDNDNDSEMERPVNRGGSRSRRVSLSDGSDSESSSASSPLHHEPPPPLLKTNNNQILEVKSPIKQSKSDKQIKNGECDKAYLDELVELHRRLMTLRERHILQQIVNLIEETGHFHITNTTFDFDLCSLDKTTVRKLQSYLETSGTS
# Ecoli rRNA inh – reduced GFP signal of wild-type E. coli, primary screen, bacterial rRNA inhibitor project, GFP/RFP fluorescence, OD600, single point | E. coli WT GFP vs humanized-ribosome RFP mutants, 24 h; stronger effect = lower value; DMSO median 0, no signal -100 | GFP signal change (wild-type ribosome), % (no concentration beside the values) | hit rate 1.6% among 350,000 | AID 720706, 2013;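 active = significant combined selectivity score with lowered wild-type GFP, culture density cut under 30%, mutant RFP and density less affected; inactive = any of these conditions unmet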; also: one replicate is shown; some compounds called inactive have numbers as strong as hits
# Beta cell apopt – inhibitors of cytokine-induced beta cell apoptosis, primary screen, luminescence | INS-1E cytokine-induced death, ATP luminescence, 48 h; percent of positive-control rescue, neutral wells zero | protection from apoptosis, % (test concentration not listed) | hit rate 0.8% among 300,000;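 active = all replicates at 75% or more, or half of them and the mean; inconclusive = half reach 75% but not the mean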;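 also: 0% = cytokine-treated negative control wells and 100% = positive control rescue; higher means more ATP so stronger rescue from cytokine killing; wells of about 40 µL received 100 nL stock; the first replicate is given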
# FGF22 binding – binders of human FGF22 protein, primary screen, FGF22 synaptogenesis inhibitor project, biophysical, thermal shift, single point. recombinant FGF22 thermal shift, SYPRO orange fluorescence; percent of sucrose octasulfate shift, DMSO zero. AID 651658, 2012. hit rate 1.5% among 340,000. calls only at 9.99 µM;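 active = melting point raised past a set limit in the mean and every replicate; inconclusive = no clear call; three in four hits are not shown here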
# Target sequence (Q9HCT0 whole entry, looked up): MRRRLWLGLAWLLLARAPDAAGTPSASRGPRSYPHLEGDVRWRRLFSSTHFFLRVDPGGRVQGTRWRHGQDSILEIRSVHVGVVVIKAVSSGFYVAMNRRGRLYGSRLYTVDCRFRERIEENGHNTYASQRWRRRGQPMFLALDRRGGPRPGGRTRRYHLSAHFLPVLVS
# Bfl-1 A1 inh – caspase 3/7 activation in MEF A1-2A-BIM cells, primary screen, A1 inhibitor project, cell-based, luminescence, HTS; AID 2462, 2010; caspase activation, % (no concentration beside the values); Caspase-Glo 3/7 luminescence, 3 h; percent of clofoctol response, vehicle zero; hit rate 0.066% among 330,000;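 active = over half of replicate activation scores above 10%, or exactly half above 10 with the replicate mean above 10; inconclusive = replicate mean below 10 yet half the replicates above 10; inactive = over half of replicates below 10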;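 also: wells of about 30 µL received 50 nL stock; many hits fall short of the cut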
# Ecoli rRNA inh OD600 – also measured in Ecoli rRNA inh; calls as there; OD600 change, %; measured here: OD600 growth;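 optical density of the mix in the first replicate; 0 = DMSO median and -100 = no signal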
# Ecoli rRNA inh RFP – also measured in Ecoli rRNA inh; calls as there; RFP signal change, %; measured here: RFP humanized mutant strains;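 first replicate; 0 = DMSO median and -100 = no signal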
# * marks the source's active call; other numbers are inactive results; i = inactive; ? = inconclusive; . = not tested or not shown.
SMILES,UCH37 inh,T cruzi inh,Ecoli growth,MLL AF4-AF9 inh,Ecoli rRNA inh,Ecoli rRNA inh OD600,Ecoli rRNA inh RFP,Beta cell apopt,FGF22 binding,Bfl-1 A1 inh
O=C(NCCc1ccc(Cl)cc1)c1ccc(Br)s1,0.5,8,0.74,-2.9,7,13,-1.6,-2,i,0.9
CC(C)(C)c1cc(CCC(=O)NNC(=S)NC(=O)c2ccccc2)cc(C(C)(C)C)c1O,2.7,59*,0.73,.,.,.,.,?,.,0.8
N#CC1=C(S)N(c2ccccc2)C2(CCCCC2)NC1=O,2.9,-3,0.65,2.1,9,12,-9.5,-3,i,-0.2
CCOC(=O)c1nnn(-c2ccc([N+](=O)[O-])cc2[N+](=O)[O-])c1C,2.0,96*,0.68,1.2,11,5,-2.6,37,.,-1.3
CSCCC(NS(=O)(=O)c1ccc(Cl)cc1)C(=O)OCC(=O)NC1CCCCC1 (stereo not given),2.1,7,0.68,.,.,.,.,-1,.,-0.6
CCNC(=S)N(CCc1c(C)[nH]c2ccc(Cl)cc12)Cc1ccco1,4.0,72*,0.67,6.0,-55,-77,-11,3,i,0.8
CC(C)(C)OC(=O)CNC(=O)c1[nH]cnc1C(=O)NC(c1ccccc1)c1ccccc1,5.1,16,0.71,7.2,-6,-26,-5.3,-5,i,0.4
COCCn1ccc2c(OCC(=O)NCc3ccccc3)cccc2c1=O,-6.1,-10,0.66,-0.2,12,0,2.7,.,i,0.4
COc1ccc(CNCc2cc(OC)ccc2OC)cc1,0.9,-4,0.68,-0.7,5,2,-0.2,4,i,-0.9
COc1cc(C(=O)N2CCN(C/C=C/c3ccccc3)CC2)cc(OC)c1OC,0.9,2,0.67,.,.,.,.,8,.,-0.3
O=C(CSc1nc2ccccc2nc1N1CCCC1)Nc1ccc(F)cc1,-0.9,12,0.8,3.9,-2,-40,-9.6,-13,i,0.4
COc1ccccc1N1CCN(C(=O)C(C)N(c2ccccc2)S(C)(=O)=O)CC1 (stereo not given),1.5,-11,0.74,.,.,.,.,0,.,2.5
CCN(CC)C(=O)OCc1c(-c2ccccc2)ncc2ccccc12,0.1,.,0.72,3.5,-40,-46,-11,1,i,-0.8
COc1cc(NC(=O)CCc2nnc3ccc(N4CCCC4)nn23)cc(OC)c1OC,3.7,-21,0.7,-2.6,1,-1,-0.3,4,i,1.3
Cc1ccc(C(=O)/C=C/c2cn(CN3CCN(C)CC3)c3ccccc23)cc1,-8.9,15,0.64,.,.,.,.,-18,.,1.5
COC(=O)Cn1c(CCS(=O)(=O)c2ccc(Cl)cc2)nc2ccccc21,0.1,-8,0.75,.,.,.,.,-8,.,0.1
COc1ccc(O)cc1,-0.4,.,0.7,-1.3,.,.,.,.,i,.
COc1ccc(C(=O)N2CCC(C(=O)N3CCN(Cc4ccccc4)CC3)CC2)cc1,-1.5,-2,0.69,-6.6,1,-3,1.7,.,i,0.9
CSc1ccccc1OCc1cc(C(=O)NCC(C)(C)N2CCOCC2)no1,0.7,-1,0.71,0.3,5,7,0.0,-3,i,-0.8
COc1ccccc1C(=O)CC(=O)C(=O)Nc1cccc([N+](=O)[O-])c1C,5.3,-10,0.65,4.2,6,5,-9.7,10,i,-0.7
O=C(O)CCCCCNC(=O)C(=O)C1C(=O)Nc2ccccc21 (stereo not given),4.9,-7,0.72,-35,8,3,0.2,-3,i,1.7
O=C(NCc1ccccc1)C(c1ccco1)N(C(=O)c1csnn1)c1ccccc1F (stereo not given),4.0,11,0.71,2.4,-2,-2,-0.9,-3,i,0.2
Cc1ccc(Cl)cc1NS(=O)(=O)c1ccc2oc(=O)ccc2c1,4.8,-4,0.68,-2.0,-5,-21,7.3,0,i,0.7
CCNC(=O)COc1cccc2ccccc12,0.3,-3,0.69,.,.,.,.,1,.,-0.5

# Reformatted with two lines to a compound: entries from further up.
# The line under a structure holds: UCH37 inh	T cruzi inh	Ecoli growth	MLL AF4-AF9 inh	Ecoli rRNA inh	Ecoli rRNA inh OD600	Ecoli rRNA inh RFP	Beta cell apopt	FGF22 binding	Bfl-1 A1 inh
CSc1ccccc1OCc1cc(C(=O)NCC(C)(C)N2CCOCC2)no1
→ 0.7	-1	0.71	0.3	5	7	0.0	-3	i	-0.8
COc1ccccc1C(=O)CC(=O)C(=O)Nc1cccc([N+](=O)[O-])c1C
→ 5.3	-10	0.65	4.2	6	5	-9.7	10	i	-0.7
O=C(O)CCCCCNC(=O)C(=O)C1C(=O)Nc2ccccc21 (stereo not given)
→ 4.9	-7	0.72	-35	8	3	0.2	-3	i	1.7
O=C(NCc1ccccc1)C(c1ccco1)N(C(=O)c1csnn1)c1ccccc1F (stereo not given)
→ 4.0	11	0.71	2.4	-2	-2	-0.9	-3	i	0.2
Cc1ccc(Cl)cc1NS(=O)(=O)c1ccc2oc(=O)ccc2c1
→ 4.8	-4	0.68	-2.0	-5	-21	7.3	0	i	0.7

# (listing goes on)
SMILES,UCH37 inh,T cruzi inh,Ecoli growth,MLL AF4-AF9 inh,Ecoli rRNA inh,Ecoli rRNA inh OD600,Ecoli rRNA inh RFP,Beta cell apopt,FGF22 binding,Bfl-1 A1 inh
Cc1ccc(N2CC(C(=O)OCC(=O)Nc3ccccc3F)CC2=O)cc1 (stereo not given),1.8,-20,0.7,-4.3,-2,-3,1.0,-1,i,1.9
S=C(NCC1CCCO1)N1CCN(c2ccccc2)CC1 (stereo not given),5.3,8,0.71,0.9,6,4,2.7,-2,i,0.5
COc1cc(/C=C2/C(=O)NN(c3ccc(C)c(Cl)c3)C2=O)cc([N+](=O)[O-])c1O,19,-4,0.63,2.0,-14,-22,5.2,-1,i,1.1
c1ccc(-n2ncc3c(NC4CCCCCC4)ncnc32)cc1,5.5,11,0.7,4.3,-41,-51,-9.0,2,i,-0.7
Cc1ccc(SCCC(=O)Nc2c(C)n(C)n(-c3ccccc3)c2=O)cc1,1.8,1,0.69,.,.,.,.,1,.,-0.1
C=CCNC(=O)C1=NN(c2c(F)c(F)cc(F)c2F)C(=O)CC1,6.7,-17,0.63,-2.7,3,10,-4.3,-3,i,1.0
O=C(COC(=O)CNC(=O)C1CCCCC1)Nc1ccc(F)c([N+](=O)[O-])c1,1.4,.,0.71,2.7,.,.,.,-1,i,-0.3
CCOC(=O)N1CCC(NC(=O)C2CCN(Cc3nc(-c4ccc(CC)cc4)oc3C)CC2)CC1,1.2,.,0.78,12,2,6,2.0,.,i,.
O=C(CN(Cc1ccccc1)C(=O)CCC(=O)Nc1ccccn1)NCc1ccc(F)cc1,3.2,3,0.7,-4.6,3,12,1.4,-2,i,1.4
COc1ccc(N(CN2C(=O)c3ccccc3C2=O)C(=O)C(C)C)cc1,3.3,-8,0.75,.,-10,2,-4.3,-9,.,0.6
CN(C)c1ccc(NC(=S)c2ccc3ccccc3n2)cc1,3.8,-4,0.69,-0.1,20,11,2.8,-2,i,0.0
COc1ccc(C2/C(=C(/O)c3ccccc3)C(=O)C(=O)N2c2ccccn2)cc1OC (stereo not given),8.5,19,.,-1.6,9,18,0.2,-4,i,0.0
CCc1nc2ccccc2c(C(=O)OCC(=O)NCc2ccc3c(c2)OCO3)c1C,-1.2,21,0.71,-2.4,-19,-15,8.7,3,i,0.5
COc1ccc(Nc2c3c(nc4ccccc24)CCCC3)cc1OC,7.7,13,0.66,9.8,6,4,-2.9,11,i,0.4
CCN(CC(=O)Nc1c(F)cccc1F)C(=O)CCC(=O)c1ccc(F)cc1,2.5,-8,0.69,11,11,15,0.8,-4,i,1.2
C#Cc1ccc(C(=O)Nc2cc(C(N)=O)ccc2N2CCOCC2)cc1,3.3,3,0.73,.,.,.,.,-2,.,0.1
C/C(=N\NC(=O)C(=O)Nc1c(C)n(C)n(-c2ccccc2)c1=O)c1ccncc1,.,3,.,-3.6,4,-4,-0.1,-5,i,0.5
CCN(CC)c1nc2ccccc2n2cnnc12,5.2,6,0.65,.,.,.,.,-2,.,-1.5
COc1ccccc1NC(=O)CN1CCN(CC(=O)Nc2ccccc2Cl)CC1,2.2,0,0.7,-1.1,13,5,1.0,-3,i,0.5
Cc1ccc(Nc2nc(CSc3nnnn3-c3ccccc3)cc(=O)[nH]2)cc1,6.0,1,0.68,.,.,.,.,5,.,-1.4
CCN(C(=O)COC(=O)CCCc1nc2ccccc2s1)c1c(N)n(Cc2ccccc2)c(=O)[nH]c1=O,-0.1,.,0.69,-5.9,3,4,-3.1,.,i,.
CCOC(=O)C1C(=O)NC(c2ccccc2)=NC1c1ccc(F)cc1 (stereo not given),3.5,-3,0.75,.,.,.,.,-5,.,0.1
O=C(CSc1nnnn1-c1ccccc1)Nc1ncc(Cc2cccc(Cl)c2Cl)s1,0.8,6,0.69,-5.9,.,.,.,1,i,0.9
Cc1cc(C)nc(SC2CCCCC2NS(=O)(=O)c2ccc(Cl)cc2)n1 (stereo not given),0.7,-15,0.71,.,.,.,.,-10,.,0.8
O=C1C(=O)N(CC2CCCO2)C(c2ccccc2[N+](=O)[O-])/C1=C(/O)c1ccccc1 (stereo not given),8.8,-13,0.65,-4.5,-8,-3,9.7,-6,i,-3.2
O=C(NC1CCCCCCC1)NC1CCCCC1,-0.7,-7,0.74,.,.,.,.,3,.,-1.1
Cc1cc(C)cc(OCc2ccc(C(=O)O)o2)c1,5.2,-1,0.71,.,.,.,.,-15,.,-4.6
CC(=O)NC(Cc1ccccc1)Cc1ccccc1,-0.4,7,0.69,-0.7,1,7,-2.3,5,i,2.2
COc1cc(-c2nnc3n2N=C(c2ccccc2)CS3)cc(OC)c1OC,2.3,33,0.71,.,.,.,.,21,.,0.3
O=C(NCc1cccnc1)c1ccc(Cl)c(S(=O)(=O)N2CCOCC2)c1,1.0,-7,0.64,-0.1,5,0,-4.5,-7,i,?
Cc1cc(=O)oc2cc(OCC(=O)Nc3ccccc3C(=O)O)ccc12,-9.2,4,0.7,-6.7,-1,2,-5.9,0,i,-3.0
COc1ccc(NS(=O)(=O)c2cccs2)cc1S(=O)(=O)N1CCCCC1,-0.8,-7,0.68,-12,0,-1,0.7,1,i,0.1
CC(C)[C@H]1C(=O)Nc2ccccc2N1C(=O)N[C@@H](Cc1ccccc1)C(=O)N[C@H](C(=O)O)c1ccccc1,-2.1,20,0.69,-1.4,.,.,.,-1,i,0.4
S=C(NCCc1ccc(Cl)cc1)NC1CCCCC1,.,20,.,-2.3,-4,-29,28,11,i,0.4

# Screening results deposited in PubChem by several laboratories.

# The list is partial; rates above refer to the full screens.
